High-throughput results (PubChem)
StopGo reporter – lowers the luciferase signal of an FMDV 2A StopGo reporter; human cells with a luciferase reporter of 2A StopGo recoding; control for the full effect not named in the record; Potency, µM (top dose mostly 57.9 µM), for the others: at the highest dose signal change, negative = less light; 410,000 tested, 1.2% active; AID 1159524; active = well fitted falling curve with a large enough effect; inconclusive = small, poorly fitted or top-dose-only effect; inactive = no such curve, though single readings can be large or run the other way; tested in HEK293T cells; further: nearly all actives have a fitted effect of over 45% in size; luciferase light after 4 h
RE007 growth inh – less growth of the S. pombe RE007 Vpr strain | Potency, µM (top dose mostly 92.2 µM), for the others: at the highest dose activity change, negative = less growth | AID 651644 | 360,000 tested, 0.21% active | S. pombe RE007 Vpr strain, BacTiter-Glo ATP luminescence, 24 h; control for the full effect not named in the record; active = well fitted falling curve with a large enough effect; inconclusive = small, poorly fitted or top-dose-only effect; inactive = no such curve, though single readings can be large or run the other way;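 further: nearly all actives have a fitted effect of over 50% in size; the assay follows cell death caused by Vpr and the record does not say whether a fall means rescue or toxicity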
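Fission yeast RE007 carrying one integrated HIV-1 vpr copy, seeded at OD 0.01 in PMG+AL medium with 23 nL pinned compound. Grown 24 h at 30 degrees; viability read by BacTiter-Glo luminescence after 5 min.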
* = called active by the depositor; ? = inconclusive; [ ] = another dose, or the depositor's remark. On the % scale 0 is the no-effect control and ±100 the full control effect; potency means the concentration at half of the fitted maximal effect. The list is partial; count on the stated rates, not on these rows.

SMILES | StopGo reporter | RE007 growth inh
CC(C)C(=O)N1CCC1(C)C(=O)Nc1cccc(Oc2ccccc2)c1 (stereo not drawn) | 5% | 4%[18.4 µM]
C=C(C)[C@@H]1CC=C(CO)CC1 | 0% | 8%
CSc1ccc(CN2CCC2(C)C(=O)NCc2cccc(C(F)(F)F)c2)cc1 (stereo not drawn) | -25% | -8%
COc1ccc(Nc2nc(C)cc(-c3cc(-c4ccccc4)on3)n2)cc1 | -8% | 2%
CC(=O)c1ccc2ccccc2c1OC(=O)c1ccncc1 | 18% | -23%
COC(=O)[C@@]1(Cc2ccccc2)[C@H]2C(=O)N(Cc3ccccc3)C(=O)[C@H]2[C@H]2CN(C)C(=NCc3ccccc3)N21 | 2% | -12%
Cc1nc(-c2ccccc2)sc1C1(C)CC(c2ccccc2F)=NO1 (stereo not drawn) | 38%[activator] | 3%
Cc1cccc(C)c1-n1nnnc1C(c1ccnc2ccccc12)N(C)Cc1ccc(Cl)c(Cl)c1 (stereo not drawn) | ? | 7%
CCNC(=O)C1(C)CCN(C(=O)c2c(F)ccc(C)c2F)C1 (stereo not drawn) | -14% | 9%[18.4 µM]
CC1=C(C(=O)N(C(C)C)C(C)C)CC(CC(=O)NCc2cccc3ccccc23)C(=O)N1Cc1ccc(F)cc1 (stereo not drawn) | -12% | 15%
Nc1ncnc2c1ncn2[C@@H]1O[C@H](C(=O)N(CCC2=CCCCC2)CC2CC2)[C@@H](O)[C@H]1O | 0% | 11%
OC(c1ccc(F)c(F)c1)c1nc(-c2ccncc2)cs1 (stereo not drawn) | ? | 4%
Cc1cnc(CNC(=O)C2(C)CCCN2CC(C)C)cn1 (stereo not drawn) | -21% | -14%[18.4 µM]
CS(=O)(=O)Nc1cccc(-c2ccc3nncn3c2)c1 | -10% | 6%
COc1ccc2c(CN(Cc3ccccc3)Cc3ccccc3)cc(=O)oc2c1 | 12% | 3%
C[C@@H]1CN([C@@H](C)CO)C(=O)CCCn2cc(nn2)CO[C@H]1CN(C)C(=O)Oc1ccccc1 | -9% | -5%
CC(C)[C@@H]1Cc2[nH]c(=O)[nH]c(=O)c2[C@H](C)O1 | -13% | 3%
OC[C@@H]1CN(Cc2ccc3c(c2)OCO3)C[C@H](n2cnc3c(NCc4ccco4)ncnc32)O1 | -16% | 15%
CC(C)c1ccc(-n2nnnc2SCc2nc(N)nc(N)n2)cc1 | ? | 10%
CN(CCc1ccccc1)C(=O)c1cccc(NC(=O)Cc2cccc(NC(=O)C3CCN(C(=O)C4CCCC4)CC3)c2)c1 | -20% | 0%
CSCCC(C(=O)NC1CCCC1)n1c(-c2ccccn2)nc2ccccc21 (stereo not drawn) | -6% | -2%
CCc1nc2c(OCCOc3ccccc3)cccn2c1N(C)C(=O)c1ccccc1F | -18% | -7%
COc1ccccc1CNC(=O)COC(=O)c1cnc(C)cn1 | -4% | 16%
N#Cc1ccccc1OCC(=O)Nc1ccc2c(c1)OCO2 | 68%[activator] | -6%
O=C1NC[C@H](Cc2ccccc2)N(CC2CCN(CC3CCCC3)CC2)C1=O | -5% | 3%
Cc1ccc(C(=O)N2CCC(N3CCC(C(=O)N4CCOCC4)CC3)CC2)cc1 | -23% | 4%
COc1ccc(NC(=O)Nc2cccc3[nH]c([C@@H]4O[C@H](CO)[C@@H](O)[C@H](O)[C@H]4O)nc23)cc1OC1CCCC1 | -10% | 1%[18.4 µM]
Cc1cccc(NC(=O)CSc2nc(=O)n(CCCN3CCOCC3)c3c2CCCC3)c1C | -24% | 2%
CCc1ccc(NC(=O)C(=O)NCCN2CCN(C(=O)c3ccc(OC)cc3)CC2)cc1 | 0% | 4%
CCOC(=O)[C@@H]1[C@H]2COc3ccc(Br)cc3[C@@H]2N2C(=O)N(c3cccc(Cl)c3)C(=O)[C@]12C | -17% | 3%

Filtered by structure, the entries above with an aryl thioether with sulfur outside any ring (3)
SMILES | StopGo reporter | RE007 growth inh
CSc1ccc(CN2CCC2(C)C(=O)NCc2cccc(C(F)(F)F)c2)cc1 (stereo not drawn) | -25% | -8%
CC(C)c1ccc(-n2nnnc2SCc2nc(N)nc(N)n2)cc1 | ? | 10%
Cc1cccc(NC(=O)CSc2nc(=O)n(CCCN3CCOCC3)c3c2CCCC3)c1C | -24% | 2%

Continued.
SMILES | StopGo reporter | RE007 growth inh
O=C1NC[C@H](CCCCN2CCN(Cc3ccccc3)C(=O)C2=O)N(CC2CCCCC2)C1=O | -22% | -11%
O=C(c1ccco1)N1CCN(C(=O)c2[nH]c(C(F)(F)F)nc2-c2ccccc2)CC1 | -19% | -1%
CCOC(=O)/C=C/c1ccc2c(c1)S(=O)(=O)N(Cc1ccc(OC)cc1)[C@H]2CC(=O)OCC | 14% | -21%
O=S1(=O)N[C@@H](Cc2ccccc2)COc2cc(N3CCSCC3)ccc21 | -14% | 23%
CCOc1cc(OCC)cc(C(=O)N2CCC[C@H]2C(=O)N2CCC[C@H]2C(=O)NCc2cccc(OC)c2)c1 | -3% | -1%
O=C(CC[C@H]1O[C@@H](n2ccc(=O)[nH]c2=O)[C@H](O)[C@@H]1O)N[C@H](Cc1ccccc1)C(=O)NCc1ccco1 | 1% | 16%
O=C(NCCc1ccccc1)C1Cc2c(-c3ccc4c(c3)OCO4)ccnc2O1 (stereo not drawn) | -7% | -12%
CCOC(=O)C1=C[C@@H](c2ccccc2)N(S(=O)(=O)c2ccc(C)cc2)[C@H]1c1ccc(F)cc1 | -18% | 10%
CC1(C(=O)NS(=O)(=O)c2cccs2)CCN1C(=O)c1ccccc1 (stereo not drawn) | 7% | -11%[18.4 µM]
CCOC(=O)C1=CCN(S(=O)(=O)c2ccccc2Cl)C1c1cccc(F)c1 (stereo not drawn) | -23% | -1%
CN(C(=O)c1cccc(NC(=O)Cc2ccc(NC(=O)C3CCN(C(=O)C4CCC4)CC3)cc2)c1)C1CC1 | -13% | 6%
O=C(O)c1cccc(-c2csc(C(O)(c3ccccc3)C(F)(F)F)n2)c1 (stereo not drawn) | 74%[activator] | 9%
Cc1c(C(=O)NCc2ccc(C(C)C)cc2)sc(=O)n1Cc1ccc(S(=O)(=O)N(C)C)cc1 | 11µM* | 0%[18.4 µM]
CCC(=O)Nc1ccc(C(=O)NNC(=O)CCCCC(=O)NNC(=O)c2ccc(NC(=O)CC)cc2)cc1 | -16% | 1%
CCN(CC)C(=O)C1=C(C)N(Cc2ccc(C(C)(C)C)cc2)C(=O)C(CC(=O)NC2CCCC2)C1 (stereo not drawn) | -1% | 15%
CCCNC(=O)C1(C)CCN(C(=O)c2ccc3c(c2)CCO3)C1 (stereo not drawn) | -16% | 5%
O=C(/C=C/[C@H]1O[C@@H](n2cnc3c(NC(=O)c4ccccc4)ncnc32)[C@H](O)[C@@H]1O)NCCCc1ccccc1 | -14% | 1%
CCOC(=O)[C@]12CCC=C1N(CCC1=CCCCC1)C(=O)[C@H](CC(=O)NCc1ccc(C)o1)C2 | -8% | 7%
COc1ccc(C(C)(O)c2nc(-c3ccc(N(C)C)cc3)cs2)cc1 (stereo not drawn) | -24% | -3%
Cc1ccc(S(=O)(=O)N2CCCCC2)cc1NC(=O)c1ccco1 | -22% | 3%
NC(CCc1ccccc1)c1csc(Nc2ccc(C(=O)NCCO)cc2)n1 (stereo not drawn) | -14% | 8%
O=C(O)c1ccccc1NC(=O)C1CCN(S(=O)(=O)c2ccc3c(c2)OCCO3)CC1 | 0% | -18%
CN(c1ccccc1)c1ncccn1 | -17% | 22%
CC1(C(=O)NCc2ccccc2)CSCC(=O)N1C1CCN(Cc2ccccc2)CC1 (stereo not drawn) | -3% | -13%
CNc1cnc(-c2ccsc2)cn1 | 31%[activator] | 1%[18.4 µM]
Cc1ccc(S(=O)(=O)N2C[C@H]3[C@H]4C(=O)N(c5ccccc5)C(=O)[C@H]4C[C@H](OC(=O)NCC4CCCCC4)[C@@]3(O)C2)cc1 | -23% | -4%
COc1ccc(OCCN2CCC(C(=O)NC(c3ccccc3)c3ccc4ccccc4n3)CC2)cc1 (stereo not drawn) | -4% | -7%
Cc1cscc1-c1nc(NCC2CC2)nc2ccsc12 | -15% | -16%
CCOC(=O)[C@]12Cc3cc(OC)c(OC)cc3[C@H]1N(Cc1ccccc1)C(=O)c1ccccc12 | -3% | 6%
COC(C/C=C\[C@@H](O)[C@@H](C)OCc1ccccc1)OC | -13% | -6%
O=C1Nc2ccccc2-n2nnnc2C1N1CCN(c2ccc(C(F)(F)F)cn2)CC1 (stereo not drawn) | ? | 2%
Cc1ccc(S(=O)(=O)N2CCOCC2)cc1C(=O)NC1CCN(Cc2ccccc2)CC1 | -26% | -7%
CC(=O)NC(c1cccc(F)c1)c1nc(-c2cccs2)cs1 (stereo not drawn) | 8% | -9%[18.4 µM]
O=C(NCCc1cn[nH]c1)c1ccc2oc(CCc3ccccc3)nc2c1 | 11% | -7%
Cc1cnc(CNC(=O)c2csc([C@@H]3O[C@H](CO)[C@H](O)[C@H](O)[C@H]3O)n2)cn1 | -16% | 9%
C(=NOCc1ccccc1)c1ccccn1 | 11% | -26%
O=C(CSc1nnc2ccc(-c3ccccn3)nn12)Nc1cccc(F)c1 | 0% | -4%
COc1ccccc1C=C1CCc2ccccc2C1=O | -35% | ?
CCC[C@@H]1CCCO[C@@](C(=O)NCc2cc(C)n(C)n2)(C(F)(F)F)C1 | -10% | 19%
CC[C@H](C)[C@H]1CNC(=S)N1CC1CCN(CC)CC1 | -17% | -24%
O=C(NC1CCCCC1)c1nc(C2CCNCC2)oc1-c1ccccc1 | -13% | -10%
CC(C)C[C@@H]1COc2cc(N3CCN(C)CC3)ccc2S(=O)(=O)N1 | 0% | -23%
Cc1cccc(C)c1-c1ccc(CN2C(CC(C)C)C(=O)N(Cc3cn(CCO)nn3)CCS2(=O)=O)cc1 (stereo not drawn) | ? | -12%
Cc1ccc(S(=O)(=O)N2C[C@H]3[C@H]4C(=O)N(C5CCCCC5)C(=O)[C@H]4CC(=O)[C@H]3[C@@H]2c2ccccc2Cl)cc1 | -13% | 10%
C[C@@H]1CCCCO[C@H](CN(C)C(=O)NC2CCCCC2)[C@@H](C)CN([C@H](C)CO)C(=O)c2cc(NC(=O)c3ccccc3)ccc2O1 | -28% | -2%
O=c1c2ccccc2c2ccccc2c(=O)n1Cc1ccc2c(c1)OCO2 | -19% | 3%
CCN(C(=O)COC(=O)c1nc(Cl)ccc1Cl)c1c(N)n(Cc2ccccc2)c(=O)[nH]c1=O | -1% | -7%
O=C1CCC(C(=O)OCC(=O)Nc2ccc(SC(F)F)cc2)=NN1 | 8% | 2%
CC(C)(C)OC(=O)N1CCC(C(=O)Nc2cccc(C(=O)NCc3ccccc3)c2)CC1 | ? | -11%
Cc1ccc(C(O)c2ncc(-c3ccccc3Cl)[nH]2)cc1 (stereo not drawn) | 69%[activator] | -15%
Brc1cccc(-c2nc3c4ccccc4ccn3c2Cc2ccsc2)c1 | 2% | -19%
CCOC(=O)C[C@H]1c2cc(F)ccc2S(=O)(=O)N1C1CCCCC1 | 24% | 12%
COc1cccc(CNC(=O)[C@@H]2CCCN2C(=O)[C@@H]2CCCN2)c1 | -18% | 6%
CSCCC(c1nnnn1C1CCCC1)N1CCC(n2c(=O)[nH]c3ccccc32)CC1 (stereo not drawn) | -23% | -9%
c1ccc(NN(Cc2ccccn2)c2ccccc2)cc1 | -24% | -9%
CC1(C(=O)NS(=O)(=O)c2ccccc2)CCN1C(=O)c1ccccc1CCc1ccccc1 (stereo not drawn) | -1% | 5%[18.4 µM]
COc1ccc(CN2CCC2(C)C(=O)NCc2ccc3c(c2)OCO3)c2ccccc12 (stereo not drawn) | -22% | -3%
Cn1cc(C=O)c2nccnc21 | -15% | 11%
Cn1c2ccccc2c(=O)c2ccc(Cl)cc21 | 23% | -6%
O=C(Nc1ccc(Cl)cc1)c1ccc2c(c1)S(=O)(=O)c1ccccc1C2=O | -23% | 29%

At a glance, part of the list above.
SMILES | StopGo reporter | RE007 growth inh
CC(C)C(=O)N1CCC1(C)C(=O)Nc1cccc(Oc2ccccc2)c1 (stereo not drawn) | 5% | 4%[18.4 µM]
C=C(C)[C@@H]1CC=C(CO)CC1 | 0% | 8%
CSc1ccc(CN2CCC2(C)C(=O)NCc2cccc(C(F)(F)F)c2)cc1 (stereo not drawn) | -25% | -8%
COc1ccc(Nc2nc(C)cc(-c3cc(-c4ccccc4)on3)n2)cc1 | -8% | 2%
CC(=O)c1ccc2ccccc2c1OC(=O)c1ccncc1 | 18% | -23%

(further entries)
SMILES | StopGo reporter | RE007 growth inh
COc1ccc(-c2cn3c(C)c(C(=O)N4CCCc5ccccc54)sc3n2)cc1 | ? | 13%
COc1cc(-c2cc3nc(NCCN(C)C)ccn3n2)cc(OC)c1OC | -12% | -13%
CCOC(=O)CN(c1sc(C)c(C)c1C(=O)OCC)S(=O)(=O)c1ccc(C)cc1 | 13% | -22%
C[C@H]1CN([C@@H](C)CO)C(=O)CCCn2nncc2CO[C@H]1CN(C)S(=O)(=O)c1cccs1 | -5% | -6%
CCOC(=O)N1C(=O)C[C@](Sc2ccc(C)cc2)(C(=O)OC)[C@H]1c1ccccc1 | -17% | 8%
Cn1cc(-c2cnc3c(NC=O)cc(-c4cccc(C(F)(F)F)c4)cn23)cn1 | -21% | 2%[18.4 µM]
C[C@@H]1CN([C@H](C)CO)S(=O)(=O)c2ccc(Br)cc2O[C@@H]1CN(C)C(=O)CN1CCOCC1 | 46%[activator] | 3%
